PABP polyA inh: PABP-poly(A) binding inhibition | PABP-poly(A) RNA binding, fluorescence polarization | P11940 | inhibition, % at 35 µM | 290,000 compounds, 1% hits;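 active = 50% or more with normal probe brightness, or confirmed in later tests; about a fifth of its hits are not listed in these tables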;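 also: calls also rest on retests at 20 µM and on dose response follow-up; controls were probe without protein and protein plus probe with vehicle; some compounds called inactive have numbers as strong as hits; many hits fall short of the cut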
CSC inhib: blocks cancer stem cells; cancer stem cell-like cells viability, luminescence; inhibition, % at 7.5 µM; 300,000 compounds, 1.1% hits;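 active = mean at 75% or more and at least half the replicates too; tested in HMLE shEcad cells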;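 also: 0% = median of negative and 100% = median of positive control wells; the first replicate is given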
HIV Env fusion: blocks HIV Env-driven cell-cell fusion; inhibition, % at 12.3 µM; 360,000 compounds, 1.1% hits; AID 651610; HeLa-JRFL Env/CEM21 cell fusion, luciferase;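 active = mean replicate inhibition score of at least 50 and every replicate individually at or above 50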;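 also: 0% = plate neutral controls and 100% = maraviroc near 300 nM; one replicate is shown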
eIF4H FP inh: inhibitors of RNA binding by human eIF4H. Q15056. eIF4H fluorescence polarization binding assay. inhibition, % at 35 µM. 290,000 compounds, 0.94% hits. AID 2012;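 active = 50% or more with normal probe brightness, or confirmed in later tests; about a fifth of its hits are not listed in these tables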;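 also: calls also rest on retests at 20 µM and on dose response follow-up; 0% = protein and probe with vehicle and 100% = probe without protein; strong numbers were not always called active; many hits fall short of the cut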
Rce1 inh: inhibitors of yeast Ras-converting enzyme. Q03530. yeast membranes, quenched prenylated peptide cleavage fluorescence. calls only. 290,000 compounds, 0.27% hits;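 active = fall in fluorescence gain of 50% or more versus controls, with final raw signal at or below 3038400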;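 also: plate controls were neutral control wells for no effect and wells lacking membranes for full effect; tested at 10 µM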
Target sequence (Q03530 whole entry, looked up): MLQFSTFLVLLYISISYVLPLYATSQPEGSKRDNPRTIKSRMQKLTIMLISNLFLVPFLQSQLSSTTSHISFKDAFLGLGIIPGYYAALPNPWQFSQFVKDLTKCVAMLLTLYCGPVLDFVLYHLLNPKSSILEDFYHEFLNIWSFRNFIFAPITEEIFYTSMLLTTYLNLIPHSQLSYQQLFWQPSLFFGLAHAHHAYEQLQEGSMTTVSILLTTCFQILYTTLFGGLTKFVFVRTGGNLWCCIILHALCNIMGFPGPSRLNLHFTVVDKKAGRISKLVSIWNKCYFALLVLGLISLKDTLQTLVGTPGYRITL
MT1-MMP act inh: inhibitors of human MT1-MMP activation; P50281; HT1080 RFP-PRO-GFP cells, GFP/RFP ratio fluorescence, overnight; percent of plate control window, DMSO zero; GFP/RFP ratio change, % at 20 µM; 360,000 compounds, 0.061% hits;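 active = GFP/RFP ratio change of at least 30% with cell ATP level not reduced by more than half and red fluorescence within 50% of control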; also: strong numbers were not always called active
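Read-out: GFP/RFP fluorescence ratio; Test system: RFP-PRO-GFP reporter HT1080 cells; Compound dosing: single-point 20 µM compound, 1% DMSO; Times: overnight compound exposure at 37 °C.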
Yeast UUG start: yeast start codon fidelity modulation. S. cerevisiae UUG-firefly luciferase reporter, luminescence/redox ratio. activity score, % at 18.7 µM. 350,000 compounds, 0.13% hits. AID 602363;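 active = replicate mean at a twofold rise or more, about +100% in these data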;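 also: firefly luciferase made from a UUG start codon reports start codon fidelity; reporter light over untreated wells divided by growth signal over untreated wells; some hits fall short of that in this replicate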
eIF4H FP inh retest: further read-out of eIF4H FP inh, marked with its call; inhibition, %; compound at 20 µM; confirmation average;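 mean of two retest wells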
PABP polyA inh retest: second read-out of PABP polyA inh, no call of its own (marks repeat the call); inhibition, %; compound at 20 µM; confirmation repeats;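 mean of two retest wells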
MT1-MMP act inh RFP: second read-out of MT1-MMP act inh, no call of its own (marks repeat the call); RFP signal change, %; measured here: RFP expression control read;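 0 = vehicle wells; hits needed this value within 50% of zero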
* marks the source's active call; other numbers are inactive results; i = inactive; . = not tested or not shown; & = joins results of further samples. Some of the compounds tested; count on the stated rates, not on these rows.

SMILES	PABP polyA inh	CSC inhib	HIV Env fusion	eIF4H FP inh	Rce1 inh	MT1-MMP act inh	MT1-MMP act inh RFP	Yeast UUG start	others
CC(=O)Nc1ccccc1C(=O)C(=O)Nc1cccc(C(=O)NCC2CCCO2)c1 (centres undefined)	9.2	-1.2	-13.7	0.8	i	6.1	0.9	.
COc1ccc(S(=O)(=O)N2CCCOC2CNC(=O)C(=O)NCc2ccccn2)cc1 (centres undefined)	4.5	-4.7	-19.0	6.9	i	2.6	1.4	-9.8
COc1cc2c(cc1N)-c1ccc(N)cc1C2=O	.	.	-220.6	.	.	4.7	1.6	-15.1
CCN(Cc1ccccc1)C(=O)c1ccc(C(=O)N(CC)Cc2ccccc2)cc1	9.3	-17.9	-1.9	2.9	i	2.1	-7.7	-20.7
CCCCNC(=O)Nc1ccccc1CC	17.2	-5.1	-5.0	24.5	i	3.4	1.1	-20.4
O=C1OC(c2cccs2)=N/C1=C\c1ccc(-c2ccccc2Cl)o1	8.9	.	.	-12.1	i	-14.5	6.0	-3.0
O=C(CN1CCCc2ccccc21)Nc1cccc(S(=O)(=O)N2CCOCC2)c1	.	.	-17.0	.	.	-14.9	2.5	-23.2
COCC(C)OC(=O)c1c(N)n(CC(C)C)c2nc3ccccc3nc12 (centres undefined)	-5.5	-3.1	-123.3	2.8	i	-14.1	-3.2	-35.2
COC(=O)[C@H](Cc1ccc(O)cc1)NC(=O)Cn1cnc2c(OCc3ccccc3)ncnc21	.	.	9.6	.	.	2.0	4.9	-17.2
COc1ccc(C2NC(=S)NC3=C2CCCC3=C2SCCS2)cc1 (centres undefined)	11.4	-5.4	i	-3.0	i	12.4	0.9	-9.7
CCc1ccc(-c2cc(C(F)(F)F)n3nc(C(=O)Nc4c(C)nn(Cc5ccc(F)cc5)c4C)cc3n2)s1	4.0	2.1	.	4.9	i	-3.9	-11.8	-0.5
Cc1nc2ccccc2c2c1C(=O)N(Cc1cccnc1)C2=O	3.1	-10.6	-7.6	-5.9	i	3.3	4.7	-5.7

In the list so far, these have an aryl methoxy group:
SMILES	PABP polyA inh	CSC inhib	HIV Env fusion	eIF4H FP inh	Rce1 inh	MT1-MMP act inh	MT1-MMP act inh RFP	Yeast UUG start	others
COc1ccc(S(=O)(=O)N2CCCOC2CNC(=O)C(=O)NCc2ccccn2)cc1 (centres undefined)	4.5	-4.7	-19.0	6.9	i	2.6	1.4	-9.8
COc1cc2c(cc1N)-c1ccc(N)cc1C2=O	.	.	-220.6	.	.	4.7	1.6	-15.1
COc1ccc(C2NC(=S)NC3=C2CCCC3=C2SCCS2)cc1 (centres undefined)	11.4	-5.4	i	-3.0	i	12.4	0.9	-9.7

More entries.
SMILES	PABP polyA inh	CSC inhib	HIV Env fusion	eIF4H FP inh	Rce1 inh	MT1-MMP act inh	MT1-MMP act inh RFP	Yeast UUG start	others
CCN(CC)N=Nc1ccc(S(=O)(=O)Nc2nc(C)cc(C)n2)cc1	-7.5&-0.2	-14.5&-23.3	-5.3&16.5	-9.9&-8.8	i	-0.2&0.2	-2.6&-3.1	3.9&-21.9
N#CCCCc1cc2ccccc2cn1	.	.	-344.6	.	.	2.4	2.8	-5.3
Cc1cc(C)cc(C(=O)Oc2coc(CSc3nnc(NC(=O)C4CC4)s3)cc2=O)c1	-12.5	39.9	-7.6	18.4	i	10.5	7.4	.
Cn1cc(S(=O)(=O)Nc2cccc3ccccc23)c(=O)n(C)c1=O	-0.5	-10.6	-9.4	2.4	i	-0.4	2.5	-15.1
CC(NC(=O)COC(=O)CSc1ccc(F)cc1)c1ccc(F)cc1 (centres undefined)	.	3.2	-3.4	.	i	3.3	2.2	.
Cc1ccc2nc(C)c3c(c2c1)SCC3	-4.3	-5.6	-5.6	-8.3	i	1.9	7.5	-8.6
COc1ccc(-c2nnc(CSc3ncnc4sc5c(c34)CCC5)o2)cc1OC	6.7*	.	.	53.2*	.	8.3	2.6	-9.7	eIF4H FP inh retest=74.8*;PABP polyA inh retest=81.0*
Nc1ncc(-c2cc3ccccc3oc2=O)s1	29.8	-5.2	.	-3.8	i	2.3	2.0	2.8
CCCCCCC(=O)Nc1nc(C)c(-c2csc(Nc3cc(Cl)ccc3OC)n2)s1	-2.7	5.6	-7.8	-8.0	i	8.4	6.9	11.3
Cc1nc(SCc2ccccc2)c(C(F)(F)F)c(=O)[nH]1	-2.1	3.8	.	-11.4	i	0.1	2.3	6.7
CCOC(=O)c1cc(-c2cccs2)nn1CCC#N	4.0	.	10.2	-0.3	i	10.6	4.9	-19.9
COC(=O)c1ccc(Oc2nc(C(N)=O)cc(-c3ccccc3)n2)cc1	2.6	-4.6	6.4	-8.2	i	1.0	-1.5	17.9
CCOC(=O)Cn1cnc2c(nnn2-c2ccc(C)cc2)c1=O	0.7	-16.8	-37.8	3.2	i	-5.0	-0.1	0.2
NS(=O)(=O)c1cccc(NC(=O)COC(=O)CC2Sc3ccccc3NC2=O)c1 (centres undefined)	.	-17.4	-27.4	.	.	-2.7	0.8	-0.8
O=C(CSC1CS(=O)(=O)c2cc([N+](=O)[O-])ccc21)NNC(=O)c1ccc(Cl)cc1 (centres undefined)	4.4	-4.6	0.9	-3.8	i	-0.9	2.0	39.2
O=C(NCCCN1CCOCC1)C1CCN(S(=O)(=O)c2ccccc2)CC1	.	-0.6	-7.3	.	i	-2.3	0.4	-10.6
Cc1cc(C)nc(NC(=O)/C=C/c2ccc3c(c2)OCO3)c1	-0.3	84.5*	-137.2	4.4	i	-11.9	-17.5	-6.5
COCC(=O)N1CCCC(C(=O)c2ccc3c4c(cccc24)CC3)C1 (centres undefined)	9.5	-1.7	7.6	2.3	i	-1.3	-0.2	-10.3
COc1ccc(CNC(=O)CN(Cc2ccc(C)cc2)S(=O)(=O)c2ccc(Cl)cc2)cc1	9.1	19.1	-19.4	-6.2	i	5.4	-2.6	-13.5
COc1ccc(C(=O)c2ccc(N3CCN(C4CC(=O)NC4=O)CC3)cc2)cc1F (centres undefined)	9.2	1.9	.	-0.7	i	-3.7	-1.2	10.7
Cc1ccc2nc(-c3ccccn3)cc(C(=O)NC3CCN(C)CC3)c2c1	-10.7	.	.	-10.8	i	.	.	.
CCn1cc(SCC(=O)NCC2CCCO2)c2ccccc21 (centres undefined)	18.3	3.2	.	-12.6	i	-4.7	-0.7	-7.6
CN(C)c1ccc(NC(=O)c2cccc([N+](=O)[O-])c2)c2ccccc12	7.0	-4.7	4.3	1.1	i	-3.8	2.2	13.1
CCCN(C(=O)CCNC(=O)c1ccc(Cl)cc1)c1c(N)n(Cc2ccccc2)c(=O)[nH]c1=O	.	.	-5.8	.	.	1.5	3.1	-8.2
CCS(=O)(=O)c1ccc(-c2cccc(NC(=O)c3ccco3)c2)nn1	.	-5.2	13.3	.	i	-2.1	1.6	-12.1
COc1ccc2sc(-c3ccc(SC)cc3)c(C#CCO)c2c1	.	83.0*	-25.6	.	.	-4.5	-16.9	-16.5
Cc1c(NC(=O)COC(=O)c2ccc[nH]c2=O)c(=O)n(-c2ccccc2)n1C	7.6	-0.7	-7.6	-7.3	i	6.3	5.0	-12.6
Cc1ccc(S(=O)(=O)N2CCCC2C(=O)N(C)Cc2cccs2)cc1 (centres undefined)	-10.1	-13.1	-16.4	-11.6	i	-1.2	0.8	-1.6
O=C1c2cccc3cccc(c23)C(=O)N1c1cccnc1	-5.3	.	.	-3.5	i	-4.8	0.2	.
CN(C)S(=O)(=O)c1cccc(NC(=O)c2cccc(S(=O)(=O)N3CCCCC3)c2)c1	.	.	0.4	.	i	-4.0	-4.6	1.7
O=C(N1CCCCC1)C1(S(=O)(=O)c2ccccc2)CC=CC1	-11.3	-5.6	15.0	-11.8	i	2.4	2.4	-17.5
CCOC(=O)C1CCN(C(=O)C2CCCN(c3ncnc4c3nc3n4CCCCC3)C2)CC1 (centres undefined)	-2.0	3.9	-0.2	-14.4	i	0.0	-0.9	-20.9
COc1cccc(NC(=O)CSc2nnc(-c3cc(C)n(-c4ccccc4)c3C)o2)c1	-0.3	65.3	-146.7	1.6	i	8.6	5.5	-10.9
O=C(O)c1ccccc1C(=O)OCc1c(-c2ccccc2)ncc2ccccc12	.	0.2	-15.2	.	.	-1.0	-1.1	-3.6
O=S(=O)(CCc1ccccc1)/N=C/c1cccs1	-0.4	-3.2	.	-6.6	i	2.4	15.8	-11.5
CCC(=O)N1c2ccccc2NC2=C(C(=O)CC(C)(C)C2)C1c1cccnc1 (centres undefined)	9.0	0.0	7.7	-1.8	i	0.1	2.7	.

Part of the list above in order of molar mass, smallest number first:
SMILES	PABP polyA inh	CSC inhib	HIV Env fusion	eIF4H FP inh	Rce1 inh	MT1-MMP act inh	MT1-MMP act inh RFP	Yeast UUG start	others
O=C1c2cccc3cccc(c23)C(=O)N1c1cccnc1	-5.3	.	.	-3.5	i	-4.8	0.2	.
COc1ccc2sc(-c3ccc(SC)cc3)c(C#CCO)c2c1	.	83.0*	-25.6	.	.	-4.5	-16.9	-16.5
CCC(=O)N1c2ccccc2NC2=C(C(=O)CC(C)(C)C2)C1c1cccnc1 (centres undefined)	9.0	0.0	7.7	-1.8	i	0.1	2.7	.
Cc1ccc(S(=O)(=O)N2CCCC2C(=O)N(C)Cc2cccs2)cc1 (centres undefined)	-10.1	-13.1	-16.4	-11.6	i	-1.2	0.8	-1.6

Further records follow.
SMILES	PABP polyA inh	CSC inhib	HIV Env fusion	eIF4H FP inh	Rce1 inh	MT1-MMP act inh	MT1-MMP act inh RFP	Yeast UUG start	others
O=C1CSC(=S)N1N=Cc1c(F)cccc1Cl	.	.	-13.6	.	.	-0.3	6.1	-13.2
CCCCCCC(=O)Nc1ccc(S(=O)(=O)Nc2onc(C)c2C)cc1	.	-7.1	5.6	.	i	3.3	2.2	.
CCN(Cc1ccccc1)C(=O)CC1Oc2ccccc2NC1=O (centres undefined)	-1.7	-14.6	-3.7	5.5	i	2.4	2.6	-14.7
Cc1nn(CCC(=O)O)c(C)c1C	-1.3	-7.5	.	-12.2	.	-2.2	4.0	.
COc1ccc(S(=O)(=O)N2CCCCCC2)cc1C(=O)OCC(=O)NC(C)(C)C	-0.8	-8.2	-1.5	9.4	i	-1.6	2.3	.
CCNC(=O)C/C(C)=N/NC(=O)C1CCCCC1	-5.5	-17.8	1.1	-10.4	i	-0.7	0.7	.
O=C(NCC(=O)N1CCN(C(c2ccccc2)c2ccccc2)CC1)c1ccccc1Br	.	.	-2.0	.	.	-2.7	-8.9	-13.7
CC(C)(C)c1ccc(C(=O)COC(=O)CN2C(=O)NC3(CCCC3)C2=O)cc1	4.8	1.9	4.5	2.1	i	-3.2	1.6	-9.2
Cc1ccc(C(=O)N/N=C\c2ccc([N+](=O)[O-])o2)cn1	26.8	-2.6	-7.3	50.5	i	0.9	-6.1	-1.0	eIF4H FP inh retest=6.4;PABP polyA inh retest=3.6
CCOc1cc(CNc2ncnc3nc[nH]c23)ccc1OC	-17.8	-2.4	11.6	3.2	i	2.1	-11.3	-17.6
NC(=O)NCCCC(=O)NCC(c1ccccc1Cl)c1c[nH]c2ccccc12 (centres undefined)	-4.5	-15.3	0.5	-0.5	i	-1.5	-3.2	3.2
C=CCn1c(N)c(C(=O)Nc2ccccc2OC)sc1=S	-2.6	-1.7	-22.6	1.8	i	-0.5	2.0	-14.1
CC(=O)C[C@H]1c2ccccc2S(=O)(=O)N1c1ccccc1	.	-10.6	-24.5	.	i	-0.3	1.5	-15.5
N#C/C(=N\Nc1cccc(C(F)(F)F)c1)C(=O)c1ccsc1	5.0	52.2	15.2	-2.6	i	-6.5	-38.1	.
CCn1cc(C(C)(C)C)c(C#N)c1NC(C)=O	18.2	-10.7	.	1.2	i	3.1	5.2	-21.2
O=C(Nc1ccccn1)c1ccc(Br)s1	-10.6	.	-31.3	3.6	i	-1.0	1.3	-38.0

Source: PubChem
